Compound activity as filed in PubChem.
Beta2AR agonist: human beta-2 adrenergic receptor agonism by FAP; P07550; 340,000 tested, 0.43% active; response, % (test concentration not listed); Am2.2-beta2AR cells, FAP receptor internalization, flow cytometry; reference of the scale not given here;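 active = response above a set limit, near 3 SD of response in nonfluorescent compounds, cut at about 42% in these data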;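 note: stock transfer was 100 nL into about 11 µL; a reference agonist was the positive control; negative values mostly stem from fluorescent compounds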
Target sequence (P07550 whole entry, looked up): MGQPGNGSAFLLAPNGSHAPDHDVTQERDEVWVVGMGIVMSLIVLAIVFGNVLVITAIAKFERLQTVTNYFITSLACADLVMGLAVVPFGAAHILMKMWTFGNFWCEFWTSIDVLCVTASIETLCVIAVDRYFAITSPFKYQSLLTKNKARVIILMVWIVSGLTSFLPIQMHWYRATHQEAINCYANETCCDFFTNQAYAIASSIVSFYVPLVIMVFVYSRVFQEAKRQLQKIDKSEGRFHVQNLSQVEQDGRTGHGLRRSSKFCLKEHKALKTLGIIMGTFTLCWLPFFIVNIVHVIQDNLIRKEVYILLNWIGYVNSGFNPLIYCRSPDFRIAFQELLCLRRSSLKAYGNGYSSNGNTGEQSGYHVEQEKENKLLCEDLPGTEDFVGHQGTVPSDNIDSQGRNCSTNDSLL
ALR inh: inhibitors of human sulfhydryl oxidase ALR; P55789; purified ALR, DTT oxidation, H2O2 HRP-luminol luminescence; inhibition, % (concentration not given with the values); 290,000 tested, 3.8% active;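 active = mean and each replicate at 75% or more; inconclusive = only one of the two met; inactive = neither met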;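 note: stock transfer was 7.5 nL into about 7.5 µL; 0% = neutral wells and 100% = wells with inactivated enzyme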
Target sequence (P55789 whole entry, looked up): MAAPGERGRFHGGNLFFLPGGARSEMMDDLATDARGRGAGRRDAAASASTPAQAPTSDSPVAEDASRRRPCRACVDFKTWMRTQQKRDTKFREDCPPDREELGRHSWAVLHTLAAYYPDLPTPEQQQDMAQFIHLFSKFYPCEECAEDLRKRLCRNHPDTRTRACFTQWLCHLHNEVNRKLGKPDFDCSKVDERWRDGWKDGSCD
Ecoli growth: E. coli growth inhibition | Escherichia coli growth, OD600, 23 h; stronger effect = lower value | OD600 absorbance (test concentration not listed) | 330,000 tested, 0.21% active | AID 1053175;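 active = OD600 absorbance below the run mean of sample wells minus 3.6 SD, in any replicate, cut at about 0.56 in these data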;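 note: stock transfer was 300 nL into about 60 µL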
HNF4A DNA FP: change in binding of human HNF4 alpha to DNA | P41235 | HNF4a-FITC DNA binding, fluorescence polarization, 1 h | activity change, % at 10 µM | 360,000 tested, 0.3% active | AID 1224865; in the data active = activity change above about 30%, passing the limit was not always enough;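 note: controls were the assay level and a saturating level of protein; the project sought stronger binding though the title names inhibitors; some compounds called inactive have numbers as strong as hits; positive values seem to mean higher polarization but the record does not say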
Target sequence (P41235 whole entry, looked up): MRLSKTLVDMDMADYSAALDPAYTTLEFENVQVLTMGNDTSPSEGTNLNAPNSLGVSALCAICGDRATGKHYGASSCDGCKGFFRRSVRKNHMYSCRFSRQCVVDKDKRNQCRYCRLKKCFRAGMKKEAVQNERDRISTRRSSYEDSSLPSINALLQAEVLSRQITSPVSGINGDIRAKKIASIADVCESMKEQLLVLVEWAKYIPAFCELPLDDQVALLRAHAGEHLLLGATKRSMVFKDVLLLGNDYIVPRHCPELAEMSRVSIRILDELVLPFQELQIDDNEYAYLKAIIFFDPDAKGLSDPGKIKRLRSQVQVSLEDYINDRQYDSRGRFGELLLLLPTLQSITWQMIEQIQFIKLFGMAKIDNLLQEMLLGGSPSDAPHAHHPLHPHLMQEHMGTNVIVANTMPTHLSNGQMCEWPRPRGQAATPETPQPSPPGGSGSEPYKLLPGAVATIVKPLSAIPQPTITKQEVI
FGF22 binding: binders of recombinant human FGF22 by thermal shift. calls only at 9.99 µM. AID 651658. 340,000 tested, 1.5% active. Q9HCT0. SYPRO orange fluorescence; percent of sucrose octasulfate shift, DMSO zero;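 active = melting point raised past a set limit in the mean and every replicate; inconclusive = no clear call; three in four hits are not shown here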
UCH37 inh: inhibitors of human deubiquitinating enzyme UCH37 | Q9Y5K5 | purified proteasome/UCH37, Ub-AMC cleavage fluorescence | inhibition, % (no concentration beside the values) | 330,000 tested, 0.33% active | AID 588478;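 active = mean of two replicates above 20%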;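 note: 0% = compound-free wells with enzyme and 100% = wells lacking proteasome; stock transfer was 100 nL into about 20 µL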
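System: Proteasome-associated human UCH37 deubiquitinase; Input: 0.15 nM proteasome in added enzyme buffer; Also added: Ub-AMC substrate from 1 µM stock; Incubation: 30 min compound-proteasome preincubation then 25 min substrate reaction, room temperature; Detection: fluorescence, ex 355 nm, em 460 nm; Read-out: % inhibition of Ub-AMC cleavage fluorescence; Benchmarks: no-proteasome and no-compound wells.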
LANA-H2B inh: blocks KSHV LANA binding to histone H2A/H2B. 320,000 tested, 0.6% active. Q9QR71. AID 2629. cell-free LANA-H2A/H2B peptide, fluorescence polarization. inhibition, % (concentration not given with the values); in the data active = inhibition mostly above about 10%, no sharp cut-off; inactive = mostly below about 6.7%;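 note: stock transfer was 7.5 nL into about 10 µL; 0% = median of vehicle wells and 100% = median of positive control wells; one replicate is shown; the record names a cut of 25% in any replicate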
Starred values were filed as active, the others as inactive; i = inactive; ? = inconclusive; / = not tested or not shown; + = active, no number.

SMILES | Beta2AR agonist | ALR inh | Ecoli growth | HNF4A DNA FP | FGF22 binding | UCH37 inh | LANA-H2B inh
O=C(CC1Oc2ccccc2NC1=O)NCCCN1CCOCC1 (stereo unspecified) | 0.7 | -122.8 | 0.734 | 2.6 | i | 6.5 | -1.1
CCCc1cc(=O)[nH]c(SCC(=O)Nc2cccc(S(=O)(=O)N3CCOCC3)c2)n1 | 2.0 | 71.6 | 0.7 | -3.4 | i | 5.5 | 1.9
CCOC(=O)c1nn(-c2cccc(OC)c2)c2nc(Nc3ccccc3)cc(=O)n12 | 1.8 | -8.3 | / | 15.4 | / | 0.8 | -5.7
CC1CCN(C(=O)c2ccc(-c3ccccc3Cl)o2)CC1 | -9.0 | / | 0.618 | -6.3 | i | 1.4 | -5.2
O=C(NCc1ccncc1)c1cc2ccccc2nc1Cl | -4.9 | / | 0.701 | 2.1 | i | -1.8 | 0.1
COc1ccccc1N(C(=O)c1snc(C(N)=O)c1N)C(C(=O)NC1CCCC1)c1ccc2ncccc2c1 (stereo unspecified) | -18.5 | -1.2 | 0.692 | -2.7 | i | -103.9 | 3.5
O=C1CCC(=O)N1c1nc2n(n1)C(c1ccccc1)C=C(c1ccc(Br)cc1)N2 (stereo unspecified) | 1.5 | -2.6 | 0.735 | -3.4 | / | -30.0 | 6.4
CCCCOc1ccc(NS(=O)(=O)c2ccc(-n3cnnn3)cc2)cc1 | -9.1 | -12.3 | 0.709 | 3.5 | i | 2.1 | 2.0
COc1ccccc1C(=O)NCC(=O)OCC(=O)Nc1cccc(S(=O)(=O)N2CCCCCC2)c1 | 1.9 | -10.4 | 0.666 | 1.0 | i | -1.3 | 12.2
CC(=O)Nc1cccc(NC(=O)CSc2ccc(-c3ccco3)nn2)c1 | 0.7 | ? | 0.694 | 0.7 | i | 2.3 | -1.1
Cc1ccccc1NC(=O)c1ccc(-c2ccc(Cl)cc2Cl)o1 | -6.4 | 11.6 | 0.773 | -0.6 | / | 2.2 | 3.5
Cc1cc2ncn(-c3ncccc3[N+](=O)[O-])c2cc1C | 3.0 | 0.7 | 0.637 | 0.8 | / | 1.9 | -3.9

The list goes on; it opens with the 2 that closed the last part.
SMILES | Beta2AR agonist | ALR inh | Ecoli growth | HNF4A DNA FP | FGF22 binding | UCH37 inh | LANA-H2B inh
Cc1ccccc1NC(=O)c1ccc(-c2ccc(Cl)cc2Cl)o1 | -6.4 | 11.6 | 0.773 | -0.6 | / | 2.2 | 3.5
Cc1cc2ncn(-c3ncccc3[N+](=O)[O-])c2cc1C | 3.0 | 0.7 | 0.637 | 0.8 | / | 1.9 | -3.9
O=C(Nc1ccc2c(c1)OCCO2)c1ccc(Cl)c(Cl)c1 | -0.9 | -5.8 | 0.695 | 0.2 | i | 5.7 | -2.4
Cc1ccc(S(=O)(=O)c2cc(Nc3ccccc3)ccc2O)cc1 | 2.6 | 99.5* | 0.657 | 1.4 | i | -2.9 | -1.0
COc1cccc(CNC(=O)CSc2nc3ccc(C)cc3[nH]2)c1 | -8.6 | -1.1 | 0.667 | 1.9 | i | 0.4 | -0.1
CCC1=C(OC(=O)N(CC)CC)N2C(=O)OC(=NCC3CC3)[C@]2(C)[C@H]2C1=CC[C@H]1C(=O)NC(=O)[C@H]12 | -2.5 | / | / | -0.5 | i | 1.6 | 5.0
CN(C)S(=O)(=O)c1ccc(Cl)c(NC(=O)c2ccncc2)c1 | 6.0 | 5.7 | 0.729 | 5.7 | / | 0.2 | -0.1
C=CCSc1nc2sc3c(c2c(=O)n1CC)CCC3 | 11.0 | 4.0 | 0.685 | -2.9 | i | 3.6 | 3.0
COc1cc(NC(=S)N2CCC(C(O)(c3ccccc3)c3ccccc3)CC2)cc(OC)c1 | 2.2 | 0.5 | 0.719 | 0.8 | i | 1.9 | 5.6
O=C(c1ccc(C(F)(F)F)cc1)N1CCC(=O)N(C(COCc2ccccc2)Cc2ccccc2)CC1 (stereo unspecified) | -2.1 | / | 0.657 | -0.5 | i | 1.0 | 3.4
Cn1c(-c2cccc3ccccc23)n[nH]c1=S | 8.8 | -3.2 | 0.661 | -2.6 | / | 4.3 | 0.9
Cc1ccc(NC(=O)CSc2nncs2)cc1Cl | -1.3 | 98.9* | 0.615 | 0.2 | i | 1.6 | 1.4
Cc1ccc(C)c(C(C)NC(=O)C2CCCC2)c1 (stereo unspecified) | -369.3 | 2.3 | 0.676 | -4.0 | i | 3.2 | -28.8
O=C(Nc1nc2nc(-c3ccccc3)cc(=O)n2[nH]1)c1ccccc1 | 5.6 | 27.4 | 0.662 | 0.6 | / | 1.0 | 10.3
COc1ccc(C(=O)N2CCCc3ccccc32)cc1OC | 8.1 | -11.1 | 0.684 | -0.1 | i | 4.5 | -2.9
O=C(CSCc1cccc(Br)c1)N/N=C/c1ccc2c(c1)OCO2 | 9.4 | / | / | -1.1 | / | / | -2.9
CCC(=O)N1CCc2cc(Br)cc(S(=O)(=O)N3CCC(C(=O)NC(C)(C)C)CC3)c21 | -9.2 | / | 0.669 | 2.0 | i | 0.5 | -0.5
C/C(=N\OCC(=O)N/N=C/c1ccccc1)c1cccs1 | 5.2 | 14.1 | / | 6.2 | / | / | 1.1
Cn1ccc(NC(=O)Nc2ccc(Cl)cc2Cl)n1 | 1.9 | 3.5 | 0.675 | -1.4 | i | -1.0 | 3.4
O=C(CN(C(=O)CNS(=O)(=O)c1ccccc1)c1ccc(F)cc1)NCc1ccco1 | 4.1 | 3.6 | 0.668 | -1.1 | i | 1.6 | 3.4
Cc1nc(NC(=O)COC(=O)CCS(=O)(=O)c2ccccc2Cl)c(Cl)cc1Cl | -2.6 | 23.6 | 0.695 | -2.7 | / | -11.5 | 2.6
Cc1cc(C)nc(N2N=C(C(C)(C)C)CC2=O)n1 | -2.0 | -2.3 | 0.675 | 0.1 | i | 6.4 | 1.4
CCOc1ccc(-n2c(-c3ccc(Br)cc3)c[n+]3c2CCCCC3)cc1 | 0.0 | -22.5 | 0.68 | 9.9 | i | 2.1 | -0.1
NC(=O)c1nsc(C(=O)N(Cc2ccc(F)cc2)C(C(=O)NC2CCCC2)c2ccco2)c1N (stereo unspecified) | -5.4 | -1.3 | 0.642 | -1.6 | i | -40.1 | 3.1
C=CCNC(C(=O)Nc1cccc(OC)c1)c1ccccc1 (stereo unspecified) | -3.5 | -26.0 | 0.681 | -1.8 | i | 3.1 | 2.9
Nc1ccccc1-c1nc2ccccc2[nH]1 | -4.3 | 12.2 | 0.65 | -2.1 | / | -127.7 | 0.5
Cc1ccc(S(=O)(=O)NC(=O)CSc2nc3ccccc3s2)cc1 | 5.8 | 57.5 | 0.664 | 0.4 | / | 0.1 | 2.4
CN(CC(=O)Nc1ccc(Cl)cc1)C(=O)CCc1ccccc1 | 1.0 | / | 0.702 | -2.5 | i | 3.6 | -1.9
COC(=O)c1ccc(COC(=O)C(NC(=O)Cc2ccccc2)C(C)C)cc1 (stereo unspecified) | -9.9 | / | 0.708 | 2.5 | i | -2.6 | /
O=C(N/N=C/c1ccncc1)c1cccc(NC(=O)c2ccc(Cl)cc2)c1 | -0.3 | -7.0 | / | 11.5 | + | / | 2.0
COc1ccc(CNC(=O)C2(CC(=O)NC(C)(C)C)CCCC2)cc1 | -1.4 | -2.7 | 0.675 | 1.1 | i | 3.1 | -0.8
Nc1ccccc1C(O)(Cc1ccccc1)c1ccccc1 (stereo unspecified) | 10.4 | 98.6* | 0.687 | 0.6 | i | 0.8 | 2.5
NC(=O)c1ccc(OCC(=O)N2CCNC2=O)cc1 | -4.1 | -11.4 | 0.675 | 2.2 | i | -0.2 | 3.7
Cc1cc(=O)oc2cc(OC(C)C(=O)N3CCCc4ccccc43)ccc12 (stereo unspecified) | 6.3 | / | 0.736 | 2.4 | / | -6.2 | -2.3
Cc1cc2c(cc1S(N)(=O)=O)S(=O)(=O)CCC2 | -5.9 | -3.2 | 0.686 | -1.0 | i | 1.2 | 3.1
COc1ccc(-c2c(C(C)=O)c(C)nc3sc4c(=O)[nH]nnc4c23)cc1 | 5.7 | 47.4 | 0.688 | -1.4 | i | 4.0 | 0.6
CCOC(=O)Cc1c(C)nc2c(-c3ccc(Cl)cc3)c[nH]n2c1=O | 2.3 | 97.8* | 0.697 | 0.3 | / | -36.2 | -6.8
Cc1c(Cl)ccc2c1NC(=O)[C@]21N[C@@H](CCC(N)=O)[C@H]2C(=O)N(c3ccc(F)cc3)C(=O)[C@H]21 | 9.6 | / | 0.69 | 5.6 | / | 3.0 | -5.5
Clc1ncccc1-c1nc2ccccc2n1Cc1ccccc1 | -3.2 | -0.2 | 0.697 | 5.2 | i | -14.0 | -3.6
CS(=O)(=O)N(Cc1ccc(Cl)cc1)c1ccc(C(=O)NCCSCc2ccco2)cc1 | 1.6 | 30.0 | 0.722 | -0.9 | / | 4.2 | 0.1
O=C(O)C(c1ccccc1)N1CCCC1 (stereo unspecified) | -1.0 | / | 0.714 | 1.2 | / | 3.6 | 1.6
O=c1c(-c2cccc(Cl)c2)c[nH]n1-c1ccccc1 | -2.6 | / | 0.576 | -2.2 | i | 3.6 | -5.0
COc1ccc(CN2CCOCCOCCOCCOCC2)cc1 | -1.1 | -2.7 | 0.696 | 1.6 | i | 1.3 | -0.5
CC(=O)C[C@H]1c2ccccc2S(=O)(=O)N1c1ccccc1 | -0.8 | 9.0 | / | -1.7 | i | -0.4 | 3.0
FC(F)(F)c1cc(-c2ccco2)nc(N2CCN(c3ccccc3)CC2)n1 | 2.3 | -3.7 | 0.7 | 1.7 | / | 1.0 | 2.5
COc1ccc(N(CC(=O)N2CCOCC2)S(=O)(=O)c2ccccc2)cc1Cl | -1.1 | -10.7 | 0.689 | -0.2 | i | 0.8 | -0.9
Cc1csc(NC(=O)CSc2nc3sc(C)c(C)c3c(=O)[nH]2)n1 | 12.0 | / | 0.663 | 21.4 | / | 2.5 | -4.9
Cc1ccc(N(CCC#N)C(=O)COC(=O)c2ccccc2SCC(=O)N2CCCC2)cc1 | -10.8 | 7.1 | 0.679 | 2.1 | i | 2.9 | -3.3
CC(=O)c1c(C)[nH]c(C(=O)Nc2ccc(Cl)c(S(=O)(=O)N3CCOCC3)c2)c1C | 30.0 | 1.0 | 0.719 | 2.1 | / | 4.1 | -3.5
CCOc1ccc(CN(C)C(=O)CCc2ccc(S(=O)(=O)N3CCCCCC3)cc2)cc1 | 5.8 | / | 0.666 | -4.6 | i | 1.9 | /
CCOc1ccc2[nH]c(=O)c(CN(CCc3ccccc3)C(=O)N3CCOCC3)cc2c1 | -8.8 | -2.2 | 0.671 | -3.0 | i | -60.3 | 2.8
O=C(NNc1ccc([N+](=O)[O-])cc1)C1CC2CCCC(C1)C2=O (stereo unspecified) | -4.7 | 85.8* | 0.731 | -1.6 | / | 11.1 | -2.1
COc1ccc2[nH]c3c(c2c1)CCN1C(=O)N([C@@H](C)C(=O)NC2CCCC2)C(=O)[C@]31C | 5.3 | -0.8 | 0.742 | 2.8 | i | -0.9 | -4.1
O=S(=O)(c1cccc(Br)c1)N1CCN(c2ncnc3scc(-c4ccccc4)c23)CC1 | -8.2 | / | 0.681 | 0.8 | i | 4.7 | /
O=C(NCc1cccnc1)c1ccc(COc2ccccc2Cl)cc1 | -7.7 | 98.3* | 0.662 | 1.3 | i | 0.4 | -3.1
CC(C)(C)NC(=O)Cn1nc(C(F)(F)F)c2c1CCCC2 | 1.7 | 0.6 | 0.672 | -0.9 | / | 1.5 | -2.7
CCOc1ccc(/C=N/NC(=O)c2ccccc2Cl)cc1CN1CC2CC(C1)c1cccc(=O)n1C2 (stereo unspecified) | 5.2 | -3.2 | / | 0.8 | i | / | -0.8
O=C(COC(=O)Cc1ccsc1)NCC12CC3CC(CC(C3)C1)C2 | -4.4 | -21.9 | 0.709 | -0.2 | / | 4.3 | -5.3
CCOc1cc(/C=C2\C(=O)N(Cc3ccco3)C(C)=C2C(=O)OC)ccc1O | 23.7 | -2.8 | 0.643 | 2.7 | i | 5.0 | -3.8

These rows are one share of the data; the hit share may differ from the screen's.
